Env fusion inh – inhibitors of HIV-1 Env-driven cell-cell fusion, primary screen, HeLa-JRFL effector, CEM21 target cells, luciferase | AID 651610, 2012 | inhibition, % at 12.3 µM | 360,000 compounds, 1.1% hits;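 active = mean replicate inhibition score of at least 50 and every replicate individually at or above 50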;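 note: 0% = plate neutral controls and 100% = maraviroc near 300 nM; one replicate is shown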
CSC inhib – cancer stem cell viability inhibitors, primary screen, luminescence | cancer stem cell-like cells viability | inhibition, % at 7.5 µM | AID 2717, 2010 | 300,000 compounds, 1.1% hits;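 active = mean at 75% or more and at least half the replicates too; tested in HMLE shEcad cells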;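 note: 0% = median of negative and 100% = median of positive control wells; the first replicate is given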
PABP polyA inh – PABP poly(A) RNA binding inhibitors, primary screen, biochemical, fluorescence polarization, uHTS | Polyadenylate-binding protein 1 (Homo sapiens), P11940 | inhibition, % at 35 µM | 290,000 compounds, 1% hits | AID 2014, 2009;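 active = 50% or more with normal probe brightness, or confirmed in later tests; about a fifth of its hits are not listed in these tables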;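 note: calls also rest on retests at 20 µM and on dose response follow-up; controls were probe without protein and protein plus probe with vehicle; some compounds called inactive have numbers as strong as hits; many hits fall short of the cut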
Target sequence (P11940 whole entry, looked up): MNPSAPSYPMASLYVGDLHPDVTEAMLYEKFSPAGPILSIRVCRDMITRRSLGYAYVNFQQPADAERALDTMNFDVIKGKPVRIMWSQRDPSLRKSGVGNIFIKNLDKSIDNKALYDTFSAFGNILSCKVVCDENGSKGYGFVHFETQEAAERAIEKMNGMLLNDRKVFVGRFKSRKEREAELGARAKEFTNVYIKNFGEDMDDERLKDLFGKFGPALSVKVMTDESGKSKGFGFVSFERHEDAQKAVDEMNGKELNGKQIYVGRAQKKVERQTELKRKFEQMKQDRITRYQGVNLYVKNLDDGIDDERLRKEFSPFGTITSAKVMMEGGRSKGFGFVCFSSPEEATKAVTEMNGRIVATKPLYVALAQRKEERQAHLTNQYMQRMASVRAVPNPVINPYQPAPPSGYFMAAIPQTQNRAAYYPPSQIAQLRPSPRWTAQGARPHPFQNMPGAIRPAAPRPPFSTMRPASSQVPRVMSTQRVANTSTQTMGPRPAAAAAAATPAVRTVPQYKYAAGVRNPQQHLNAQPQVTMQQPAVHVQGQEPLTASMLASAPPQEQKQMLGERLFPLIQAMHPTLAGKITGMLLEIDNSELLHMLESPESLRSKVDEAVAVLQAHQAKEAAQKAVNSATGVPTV
eIF4H inh – human eIF4H binding inhibitors, primary screen, translation initiation inhibitor project, biochemical, uHTS, fluorescence polarization; eIF4H fluorescence polarization binding assay; 290,000 compounds, 0.94% hits; inhibition, % at 35 µM; Eukaryotic translation initiation factor 4H (Homo sapiens), Q15056;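 active = 50% or more with normal probe brightness, or confirmed in later tests; about a fifth of its hits are not listed in these tables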;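 note: calls also rest on retests at 20 µM and on dose response follow-up; 0% = protein and probe with vehicle and 100% = probe without protein; strong numbers were not always called active; many hits fall short of the cut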
UUG fidelity – modulators of yeast start codon fidelity, primary screen, whole organism, S. cerevisiae, single point, plate reader | AID 602363, 2012 | S. cerevisiae UUG-firefly luciferase reporter, luminescence/redox ratio | activity score, % at 18.7 µM | 350,000 compounds, 0.13% hits;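 active = replicate mean at a twofold rise or more, about +100% in these data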;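 note: firefly luciferase made from a UUG start codon reports start codon fidelity; reporter light over untreated wells divided by growth signal over untreated wells; some hits fall short of that in this replicate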
MT1-MMP act inh – blockers of MT1-MMP proenzyme processing, primary screen, HT1080 RFP-PRO-GFP cells, GFP/RFP fluorescence; GFP/RFP ratio fluorescence, overnight; percent of plate control window, DMSO zero; GFP/RFP ratio change, % at 20 µM; 360,000 compounds, 0.061% hits;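 active = GFP/RFP ratio change of at least 30% with cell ATP level not reduced by more than half and red fluorescence within 50% of control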; note: strong numbers were not always called active
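Read-out: GFP/RFP fluorescence ratio; Test system: RFP-PRO-GFP reporter HT1080 cells; Compound dosing: single-point 20 µM compound, 1% DMSO; Times: overnight compound exposure at 37 °C.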
Rce1 inhib – yeast Rce1p protease inhibitors, primary screen, biochemical, fluorescence, cell-free homogeneous; CAAX prenyl protease 2 (Saccharomyces cerevisiae (strain ATCC 204508 / S288c)), Q03530; 290,000 compounds, 0.27% hits; calls only; yeast membranes, quenched prenylated peptide cleavage fluorescence;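 active = fall in fluorescence gain of 50% or more versus controls, with final raw signal at or below 3038400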;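 note: plate controls were neutral control wells for no effect and wells lacking membranes for full effect; tested at 10 µM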
Target sequence (Q03530 whole entry, looked up): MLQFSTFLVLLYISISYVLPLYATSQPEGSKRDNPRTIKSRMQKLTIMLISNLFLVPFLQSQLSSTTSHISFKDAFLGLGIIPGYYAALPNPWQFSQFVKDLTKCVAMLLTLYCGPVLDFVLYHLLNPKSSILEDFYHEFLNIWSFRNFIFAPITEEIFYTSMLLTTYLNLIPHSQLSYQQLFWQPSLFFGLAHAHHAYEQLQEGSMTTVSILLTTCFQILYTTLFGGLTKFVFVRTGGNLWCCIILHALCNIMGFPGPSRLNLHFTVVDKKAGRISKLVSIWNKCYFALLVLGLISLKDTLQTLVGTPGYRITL
MT1-MMP act inh RFP – second read-out of MT1-MMP act inh, no call of its own (marks repeat the call); RFP signal change, %; measured here: RFP expression control read;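 0 = vehicle wells; hits needed this value within 50% of zero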
* hit, by the source's call; i = inactive; . = not tested or not shown.

Preview:
SMILES | Env fusion inh | CSC inhib | PABP polyA inh | eIF4H inh | UUG fidelity | MT1-MMP act inh | MT1-MMP act inh RFP | Rce1 inhib
O=C1CC(c2ccccc2)C(C(=O)Nc2ccccc2F)N1 (stereo not given) | -5 | 9 | 17 | 2 | -16 | 0 | 3 | i
Cc1nc2ccccn2c1C(=O)NCc1ccc2c(c1)OCO2 | . | 10 | 1 | 0 | -22 | 10 | -10 | i
COc1cc(/C=N/N(C)C)cc(Br)c1O | -45 | 3 | 9 | 8 | . | 3 | -1 | i

The whole of this part, repeating the preview:
SMILES | Env fusion inh | CSC inhib | PABP polyA inh | eIF4H inh | UUG fidelity | MT1-MMP act inh | MT1-MMP act inh RFP | Rce1 inhib
O=C1CC(c2ccccc2)C(C(=O)Nc2ccccc2F)N1 (stereo not given) | -5 | 9 | 17 | 2 | -16 | 0 | 3 | i
Cc1nc2ccccn2c1C(=O)NCc1ccc2c(c1)OCO2 | . | 10 | 1 | 0 | -22 | 10 | -10 | i
COc1cc(/C=N/N(C)C)cc(Br)c1O | -45 | 3 | 9 | 8 | . | 3 | -1 | i
COc1ccc(C(=O)Nc2cccc(C(=O)N3CCCC3)c2)cc1 | -71 | . | -11 | 2 | -5 | 3 | 10 | i
COC(=O)c1c(NC(=O)C(C)C)sc2c1C(C(=O)OC)CC2 (stereo not given) | . | 49 | -6 | 4 | -10 | -2 | 0 | i
CCN(c1cccc(C)c1)c1ncnc2nc[nH]c12 | 22 | -7 | 1 | 5 | -10 | -6 | -2 | i
COc1cccc2c1OCC(C(=O)OCc1cccnc1)=C2 | -14 | 2 | 10 | 4 | . | 4 | 0 | i
CC1=N/C(=C/c2cccnc2)C(=O)O1 | 8 | -18 | -11 | -13 | . | 4 | 5 | i
COc1ccc(CC(=O)NCc2cccc(CNC(=O)Cc3ccc(OC)c(OC)c3)c2)cc1OC | -4 | -9 | -8 | -4 | 7 | 0 | -4 | i
COc1ccc(NC(=O)c2ccc(S(=O)(=O)N3CC(C)OC(C)C3)cc2)cc1 (stereo not given) | -11 | -11 | . | . | . | 5 | -11 | .
CN(C)c1ccc(C(c2nnnn2C(C)(C)C)N2CCc3ccccc3C2)cc1 (stereo not given) | . | . | -4 | -3 | . | . | . | i
CCOC(=O)C(=O)C1=CN(Cc2ccccc2)C=C(C#N)C1 | 15 | . | -1 | 4 | -7 | 0 | 9 | i
c1ccc(Cc2nn3c(Cn4cnc5ccccc54)nnc3s2)cc1 | . | 0 | 0 | -5 | -13 | 5 | -9 | i
O=C(CSc1ncccn1)NC1CCCc2ccccc21 (stereo not given) | 2 | -16 | 17 | -10 | 1 | -2 | 1 | i
Cc1cc2oc(=O)cc(CN(C)Cc3cccc(F)c3)c2cc1C | -14 | 5 | -2 | 0 | -11 | -4 | -2 | i
O=C(Nc1nnc(-c2ccccc2SCc2ccccc2)s1)Nc1ccccc1F | . | -2 | -12 | 1 | -2 | 2 | 3 | i
COc1ccc(N(CC(=O)NC2CCCC2)C(=O)Cn2nnc(-c3ccc(C)cc3)n2)cc1OC | -13 | -6 | -6 | -2 | 2 | -6 | -3 | i
CCOC(=O)c1cc([N+](=O)[O-])sc1NC(=O)CC | -8 | 1 | 1 | -10 | -17 | -3 | -1 | i
CCOc1cc(N2CCOCC2)c(OCC)cc1NC(=O)Cc1cccc(OC)c1 | . | -12 | 0 | 5 | . | 5 | -2 | i
COc1ccccc1OCC(=O)Nc1ccc(S(=O)(=O)Nc2cc(C)on2)cc1 | 0 | 4 | 40 | -9 | 3 | -1 | -1 | i

A stretch from the list above, for reference:
SMILES | Env fusion inh | CSC inhib | PABP polyA inh | eIF4H inh | UUG fidelity | MT1-MMP act inh | MT1-MMP act inh RFP | Rce1 inhib
CCOC(=O)c1cc([N+](=O)[O-])sc1NC(=O)CC | -8 | 1 | 1 | -10 | -17 | -3 | -1 | i
CCOc1cc(N2CCOCC2)c(OCC)cc1NC(=O)Cc1cccc(OC)c1 | . | -12 | 0 | 5 | . | 5 | -2 | i

Next section.
SMILES | Env fusion inh | CSC inhib | PABP polyA inh | eIF4H inh | UUG fidelity | MT1-MMP act inh | MT1-MMP act inh RFP | Rce1 inhib
CCCCN1C[C@H](C)[C@@H](CC(=O)NCc2ccccc2)C1=O | -10 | -11 | 5 | 0 | -8 | -2 | 1 | i
CC(C)OP(=O)(CCP(=O)(OC(C)C)OC(C)C)OC(C)C | 2 | 1 | 0 | -3 | -11 | 6 | 3 | i
CC(C)(/C=N/O)/[N+]([O-])=C/c1ccco1 | . | -11 | -9 | 2 | 4 | 2 | 7 | i
O=C1/C(=C\c2ccc(-c3ccccc3[N+](=O)[O-])o2)C(c2ccccc2)=NN1c1ccccc1 | 35 | . | -10 | 8 | -5 | 5 | -4 | i
CCOC(=O)c1cc2sccc2n1Cc1ccccc1 | -3 | -4 | -7 | -10 | -3 | 1 | 1 | i
O=C(Cn1ccc(NC(=O)OCc2ccccc2)nc1=O)NCc1nc2ccccc2[nH]1 | 1 | -3 | . | . | -27 | 5 | 3 | .
COc1ccc(-c2cc(C(=O)N3CCCC3)no2)cc1OC | -5 | -2 | 13 | -5 | -9 | 0 | 2 | i
CC(=O)N(C(C)=O)n1c(/C=C/c2cccc([N+](=O)[O-])c2)nc2ccccc2c1=O | -10 | . | -1 | -14 | . | 1 | 5 | i
O=C(/C=C/c1ccc(Cl)cc1)N1CCN(c2ccc([N+](=O)[O-])c(N3CCOCC3)c2)CC1 | 21 | 34 | 3 | -5 | -15 | 5 | -25 | i
COc1ccc(C2=NN(C(=O)CN3CCCCC3)C(c3ccc(OC)cc3)C2)cc1 (stereo not given) | -6 | 3 | 2 | 0 | . | 2 | 0 | i

5 compounds already listed, sorted by the value under MT1-MMP act inh RFP, low to high.
canonical_smiles | MT1-MMP act inh RFP
O=C(/C=C/c1ccc(Cl)cc1)N1CCN(c2ccc([N+](=O)[O-])c(N3CCOCC3)c2)CC1 | -25
O=C1/C(=C\c2ccc(-c3ccccc3[N+](=O)[O-])o2)C(c2ccccc2)=NN1c1ccccc1 | -4
COc1ccc(C2=NN(C(=O)CN3CCCCC3)C(c3ccc(OC)cc3)C2)cc1 (stereo not given) | 0
CCOC(=O)c1cc2sccc2n1Cc1ccccc1 | 1
O=C(Cn1ccc(NC(=O)OCc2ccccc2)nc1=O)NCc1nc2ccccc2[nH]1 | 3

Next section
SMILES | Env fusion inh | CSC inhib | PABP polyA inh | eIF4H inh | UUG fidelity | MT1-MMP act inh | MT1-MMP act inh RFP | Rce1 inhib
COC(=O)c1ccc(CN=C(NS(=O)(=O)c2ccccc2)c2ccccc2)cc1 | 7 | 6 | . | . | -16 | 0 | -5 | .
Cc1ccc(NC(=O)C2C(C(=O)O)C3C=CC2C32CC2)cc1 (stereo not given) | -71 | -11 | 8 | 3 | 1 | 4 | 0 | i
Fc1ccc(CNc2ncnc3cc(Cl)ccc23)cc1 | 51 | 11 | -6 | 6 | -8 | -3 | -17 | i
CCCCn1nnc(NC(=O)c2ccc(-c3ccccc3[N+](=O)[O-])o2)n1 | -25 | -1 | 5 | -4 | -4 | -1 | 0 | i
CC(NS(=O)(=O)c1ccc(Cl)cc1)C(=O)Nc1ccc2c(c1)OCCO2 (stereo not given) | -10 | . | 0 | -5 | . | -1 | 2 | i
Cc1nc(NCCc2cnc[nH]2)c2oc3ccccc3c2n1 | . | . | -1 | -1 | -12 | 1 | 0 | i
COc1ccc(-c2csc(NC(=O)CN3C(=O)NC4(CCCC4)C3=O)n2)cc1 | 1 | -16 | . | . | -27 | 1 | -3 | i
CCCOc1ccccc1OCC(=O)Nc1ccc(S(=O)(=O)N2CCCC2)cc1 | 6 | . | . | . | 17 | -1 | -2 | i
CCCC(=O)Nc1nc(-c2ccc(Cl)s2)cs1 | 2 | 14 | -9 | -3 | . | -4 | -12 | i
COc1ccccc1S(=O)(=O)CC(O)COc1ccc(F)cc1Cl (stereo not given) | 12 | -5 | 0 | 1 | . | -1 | 1 | i
Nc1ccc2c(c1)Cc1cc(N)c(Cl)cc1-2 | -8 | . | . | . | -11 | 0 | -2 | .
Cc1ccc(CNC(=O)C2CCCN(S(=O)(=O)c3ccc(F)cc3)C2)cc1 (stereo not given) | 2 | -18 | 16 | 14 | -34 | -6 | -6 | i
O=C(Cc1ccccc1Cl)NCc1cccnc1 | 5 | . | 3 | 8 | -7 | 3 | 0 | i
CCOc1ccccc1NC(=O)c1nc[nH]c1C(=O)Nc1ccccc1OCC | . | 19 | 6 | -2 | -1 | 3 | -5 | i
C[C@H](NC(=O)c1nc[nH]c1C(=O)N[C@@H](CCCCN)C(=O)OC(C)(C)C)C(=O)OCc1ccccc1 | 0 | . | . | . | 23 | 0 | 3 | .
COc1ccccc1C(=O)Nc1ccc(C(=O)c2ccccc2)cc1 | 22 | -9 | 7 | 1 | -9 | -1 | 0 | i
CCOC(=O)c1c[nH]c2c(C)ccc(Cl)c2c1=O | -12 | -4 | -10 | -8 | . | -1 | -2 | i
CCc1ccc(N(C(=O)CNC(=O)c2cccs2)C(C(=O)NC(C)(C)C)c2cc(OC)c(OC)c(OC)c2)cc1 (stereo not given) | . | -1 | -8 | -4 | -10 | 3 | -2 | i
CCN(CC)C(=O)CP(=O)(c1ccccc1)c1ccccc1 | . | -7 | -12 | 1 | -2 | 1 | 5 | .
CC(Cc1ccccc1)NC(=O)c1cc([N+](=O)[O-])ccc1Cl (stereo not given) | 14 | 0 | -7 | -7 | . | -2 | 1 | i
Cn1c(C(C#N)C(=O)c2ccco2)nc2ccccc21 (stereo not given) | . | -6 | 10 | -3 | -2 | 1 | 4 | i
FC(F)(F)c1cc(-c2ccco2)nc(NCc2cccnc2)n1 | -89 | -3 | -2 | 5 | -8 | -1 | -4 | i
O=C(NCc1cccc(F)c1)c1noc2c1CCCC2 | 2 | -8 | 14 | 0 | -8 | -1 | 0 | i
COc1ccc(S(N)(=O)=O)cc1-c1nnc2c3ccccc3c(C)nn12 | -6 | -8 | -2 | 1 | -15 | 1 | 2 | i
O=C(CSc1nnc2ccccn12)NC(=O)Cc1ccccc1 | -2 | . | -7 | -11 | . | -2 | 1 | i
Cc1nccc(-c2ccc3c(c2)OCO3)n1 | -8 | 3 | 0 | 7 | . | -4 | -2 | i
CC(C)n1c(SCC(N)=O)nc2c1c(=O)[nH]c(=O)n2C | . | . | -6 | 1 | . | 6 | 9 | i
CCOC(=O)c1c(NC(=O)CSc2nnc(CNc3ccc(C)cc3C)o2)sc(C)c1C | . | 0 | -11 | -4 | . | -1 | -2 | i
Cn1ccnc1SCc1cccc([N+](=O)[O-])c1 | 2 | -5 | -12 | -2 | -19 | 0 | 5 | i
Clc1ccc(Sc2cc(N3CCOCC3)nc(-c3ccccc3)n2)cc1 | . | -17 | -1 | 3 | -11 | 1 | -3 | i
CC(C)NC(=O)CN1CCN(C(=O)c2ccc3oc(CCCc4ccccc4)nc3c2)CC1 | -5 | 7 | 0 | -8 | -7 | 4 | 0 | i
Clc1ccc(SCc2cn3ccsc3n2)cc1 | -141 | 22 | -5 | 0 | -7 | -6 | -5 | i

Screens deposited in PubChem BioAssay by several laboratories.
